quorum sensing: Vibrio cholerae quorum sensing activators, luminescence (AID 686977); V. cholerae quorum sensing reporter, luminescence, 6 h; higher luminescence means a stronger effect; most inactives read 0; luminescence at 50 µM unless noted, or EC50 in µM where a hit was titrated; 9,400 tested, under 10 active;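 active means light above mean plus 3 SD and confirmed in a dose series; inconclusive means above that limit without a clear retest; inactive means below it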;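 further: raw light counts without normalisation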
An asterisk follows results filed as active; ? = inconclusive; [ ] = another dose, or the depositor's remark. A portion of the library (hit frequency here may not be typical).

SMILES	quorum sensing
CCOc1ccc(C(=O)CCC(=O)O)cc1	0
Cc1ccc2c(c1)C(c1ccccc1)N(C(=O)c1ccc(Br)o1)CC(=O)N2 (stereo not drawn)	0
Cc1noc(NS(=O)(=O)c2ccc(NC(=O)CSc3ncccn3)cc2)c1C	0
O=C(C(Cc1ccccc1)n1cccc1)N1CCN(c2cccc(Cl)c2)CC1 (stereo not drawn)	?
N#Cc1c(NC(=O)CSc2nnnn2C2CCCCC2)sc2c1CCCC2	120
Cc1ccc(CNC(=O)c2cc3c(-c4ccc(Cl)cc4)nn(C)c3s2)o1	320
CC1(C)CC(NC(=O)CC(c2ccccc2)c2ccccc2)CC(C)(C)N1	0
CC(=O)c1ccc(NC(=O)CN2C(=O)COc3ccc(Cl)cc32)cc1	0
Cc1c(C)n(CC(O)CN2CCCCCC2)c2ccccc12 (stereo not drawn)	0
CCOc1ccc(-c2n[nH]c(C)c2Oc2ccc(OC)cc2)c(O)c1	0
Cc1cc(C(=O)Nc2c(C)nn(Cc3ccccc3)c2C)on1	40
C(#CCN1CCCC1)CN1CCCC1	0[10 µg/mL]
CSc1nnc(NC(=O)c2cc3ccccc3oc2=O)s1	0
Cn1cnc2c1c(=O)[nH]c(=O)n2C	40[10 µg/mL]
C=CCn1c(=NC(=O)C2CCCCC2)sc2cc(NC(C)=O)ccc21	240
O=C(CCCOc1ccccc1)Nc1ccc2c(c1)OCCO2	0
Cc1cc(C)n(-c2ccc(C(=O)OCC(=O)c3ccc(Br)s3)cc2)n1	0
O=C(CC1Oc2ccccc2NC1=O)NCc1ccccc1 (stereo not drawn)	0
CC(C)(C)SCCNC(=O)c1ccccc1	0
Cc1nc(-n2nnc3ccccc32)c2c3c(sc2n1)CCCC3	0
CC(C)(C)OC(=O)NCCCCCc1nnc(SCC(N)=O)o1	0
CCOC(=O)C(C(=O)OCC)C(C(=O)OCC)N1CCOCC1 (stereo not drawn)	40
COc1ccc(Cl)cc1C(=O)Nc1ccc(N(C)C(C)=O)cc1	40
O=C(Nc1nc2ccccc2[nH]1)C12CC3CC(CC(C3)C1)C2	0
CCNC(=S)NNC(=O)c1ccccc1OC(F)F	?
Cc1cccc(-n2ccnc2SCC(=O)Nc2nccs2)c1C	40
COCCNC(=O)C(c1ccncc1)N(C(=O)Cn1nnc2ccccc21)c1ccc(OC)cc1 (stereo not drawn)	0
CC(=O)NC(CCS(C)(=O)=O)C(=O)Nc1cccc(Cl)c1Cl (stereo not drawn)	0
CCCCC(NC(C)=O)c1nc2ccccc2[nH]1 (stereo not drawn)	0
CCC(=O)OC1(C(=O)CCl)[C@@H](C)C[C@H]2[C@@H]3CCC4=CC(=O)C=C[C@]4(C)[C@@]3(F)[C@@H](O)C[C@@]21C (stereo partly drawn)	40[10 µg/mL]
CC(C)[N+]1(C)[C@@H]2CC[C@@H]1CC(OC(=O)C(CO)c1ccccc1)C2 (stereo partly drawn)	0[10 µg/mL]
CSCC[C@H](NC(=O)NCc1ccccc1F)C(=O)O	0
CC(C)NC(=O)c1cc(-c2cccs2)on1	40
CCn1c(SCC(=O)Nc2ccc(C(C)=O)cc2)nc2nc3c(cc2c1=O)CCCC3	200
COCCOC(=O)c1[nH]c2c(c1C)C(=O)CC(c1cc(OC)ccc1OC)C2 (stereo not drawn)	0
O=C1CCC(=O)N1c1nc2nc(-c3ccccc3)cc(=O)n2[nH]1	0
CC(OC(=O)c1cccs1)C(=O)NCc1ccco1 (stereo not drawn)	0
Cc1ccc(N2CCN(c3ccc(C)cc3)C2c2ccccn2)cc1	0
Cn1c(=O)c(C(=O)CSc2nnc(Nc3ccccc3)s2)c(N)n(Cc2ccccc2)c1=O	40
Cc1ccc(S(=O)(=O)n2nc(OC(=O)c3c(-c4ccccc4Cl)noc3C)cc2N)cc1	0
CCCCN=Cc1sc2ccc(OCC)cc2c1O	40
O=C(NCc1ccc2c(c1)OCO2)c1cccc2c1C(=O)N(C1CCCCC1)C2	0
O=C(c1c(F)cccc1F)N(Cc1ccccn1)C1CCCC1	0
Cc1csc(NC(=O)C(Cc2ccccc2)n2cccc2)n1 (stereo not drawn)	40
Cc1ccc(OCC(=O)N/N=C/c2ccco2)cc1	0
CCOC(=O)c1sc(Nc2ccccc2)nc1C	40
CCOC(=O)Nc1ccc2ncn(C)c(=O)c2c1	0
COc1cc(OC)c(C(=O)CCCN2CCCC2)c(OC)c1	0[10 µg/mL]
CCc1ccccc1NC(=O)c1cc2sccc2n1C	0
CC(C)C[C@H]1C(=O)N2CCC[C@H]2[C@]2(O)O[C@](NC(=O)[C@@H]3C=C4c5cccc6[nH]c(Br)c(c56)CC4N(C)C3)(C(C)C)C(=O)N12 (stereo partly drawn)	0[10 µg/mL]
O=C(c1cccs1)N1CCN(c2ccc(F)cc2)CC1	0
CN(C1CCCCC1)S(=O)(=O)c1ccc(NC(=O)C2CCCCC2)cc1	0
COc1ccc(-c2cc(C(F)F)n3ncc(C(=O)NCC4CCCO4)c3n2)cc1 (stereo not drawn)	40
O=C(CSc1nc(-c2ccco2)cc(C(F)(F)F)n1)NC1CCCC1	0
CCCCCC[C@H]1C(=O)O[C@H](C)C(NC(=O)c2cccc(NC=O)c2O)C(=O)O[C@@H](C)[C@@H]1OC(=O)CC(C)C (stereo partly drawn)	40[10 µg/mL]
COc1ccc(-n2c(Cc3cc(=O)[nH]c(=O)[nH]3)nnc2SCC(=O)NC2CCCC2)cc1	0
CNC(=O)c1ncnnc1N(C)C(=O)NCc1ccccc1	?
O/N=C(\COc1ccccc1O)c1ccccc1	0
Cn1c(=O)[nH]c(=O)c2c1nc(Br)n2CCCCSc1nc2ccccc2o1	40
CCCCNCc1cc(Cl)c(OCCC)c(OCC)c1	0

Reformatted: results already given
structure | quorum sensing
CN(C1CCCCC1)S(=O)(=O)c1ccc(NC(=O)C2CCCCC2)cc1 | 0
O/N=C(\COc1ccccc1O)c1ccccc1 | 0
O=C(NCc1ccc2c(c1)OCO2)c1cccc2c1C(=O)N(C1CCCCC1)C2 | 0

(list continues)
SMILES	quorum sensing
Cn1c(SCC(=O)N2CCCc3ccccc32)nnc1-c1c[nH]c2ccccc12	80
CC(C)C(=O)NCCSc1c[nH]c2ccccc12	0
O=C(Nc1cccc2ncccc12)c1cccnc1	280
Brc1ccc(-n2cccc2/C=N/n2cnnc2)cc1	0
Cc1c(Cl)cccc1Nc1ccccc1C(=O)O	40[10 µg/mL]
O=C(NC1CCCCC1)C(c1ccncc1)N(Cc1ccccc1)C(=O)c1ccc(-c2ccccc2)[nH]1 (stereo not drawn)	0
CSCC[C@@H](Nc1nc(-c2ccccc2)nc2c1oc1ccccc12)C(=O)O	0
CCOC(=O)c1ccc(NC(=O)COc2ccc(S(=O)(=O)N3CCCC3)cc2)cc1	0
CCCn1cc(SCC(=O)Nc2ccc3c(c2)OCO3)c2ccccc21	0
S=c1[nH]nc(-c2cccc(Br)c2)o1	0
Cc1cc(Cl)ccc1OCCCC(=O)N1CCN(C(=O)c2ccco2)CC1	0
Cc1cc2oc(=O)cc(CN3CCC(C)CC3)c2cc1Cl	0
Cc1ccc(-c2c(C#N)c(N)nc3c2CCCCC3)cc1	0
Cc1ccc2c(c1)CC1(CN2C)C(=O)NC(=O)N(CCc2ccccc2)C1=O (stereo not drawn)	280
CCc1cccc(NC(=O)CSCc2cc(=O)[nH][nH]2)c1	0
CCOc1ccc(-c2nnc(NC(=O)CCCOc3cccc(C)c3)o2)cc1	40
CC1/C(=N/O)CC(c2ccccc2)NC1c1ccccc1 (stereo not drawn)	0
O=C(O)C1C2C=CC3(CN(Cc4ccco4)C(=O)C13)O2 (stereo not drawn)	0
Nc1nonc1-c1nc2ccccc2n1CC(=O)N1CCCCC1	0
CC1Cc2ccccc2N1C(=O)c1cnc2n(c1=O)CCS2 (stereo not drawn)	0
CC(=O)c1c(C)[nH]c(C(=O)CSc2nc3ccc(C)cc3[nH]2)c1C	40
O=C(O)C1CCCCC1C(=O)Nc1ccccc1Nc1ccccc1 (stereo not drawn)	40
CCCC(=O)Nc1nc(-c2ccc(OC)cc2)cs1	40
CC(/C=N/NC(=O)c1cc(C(C)(C)C)[nH]n1)=C\c1ccccc1	0
CCc1ccc(S(=O)(=O)NCc2cn3ccsc3n2)s1	40
Cc1c(C(=O)OCc2ccccc2)nnn1-c1nonc1N	0
CCOc1ccc(NS(=O)(=O)c2ccc3[nH]c(=O)oc3c2)cc1	0
Clc1c(-c2nnc3n2CCCCC3)sc2ccccc12	0
CCOc1ccccc1NC(=O)Cc1coc2cc(C)ccc12	0
COc1ccc(N2CCN(c3nc4ccccc4nc3NS(=O)(=O)c3ccccc3)CC2)cc1	0
Cc1ccc(S(=O)(=O)N2CCCCC2C(=O)N2CCN(C)CC2)cc1 (stereo not drawn)	0
COc1ccc(-c2cc(-c3ccccc3)c(C#N)c(S(C)(=O)=O)n2)cc1	?
CSCCC(NS(=O)(=O)c1ccc2c(c1)oc(=O)n2C)C(=O)NC1CCCCC1 (stereo not drawn)	0
CC1(C)S[C@@H]2[C@H](NC(=O)COc3ccccc3)C(=O)N2[C@H]1C(=O)O	0[10 µg/mL]
Cc1c(C(=O)NCCC2=CCCCC2)oc2ccc(S(=O)(=O)N3CCC4(CC3)OCCO4)cc12	?
COc1ccc(NS(=O)(=O)c2ccc(NC(C)=O)cc2)cc1OC	0
CCN1C[C@]2(COC)CC[C@H](OC)[C@@]34C1[C@]1(OCO[C@@]15C[C@H](OC)[C@H]1C[C@@H]3[C@@H]5[C@H]1OC)[C@@H](O)[C@H]24	0[10 µg/mL]
Cc1cc(=O)n(-c2ccccc2)n1C	0[10 µg/mL]
CCn1c(=O)cc(OCC(=O)NCCC(C)C)c2ccccc21	40
Cn1cccc1C(=O)OCc1csc(-c2ccccc2)n1	40

The final two entries of the part above open the next one:
SMILES	quorum sensing
CCn1c(=O)cc(OCC(=O)NCCC(C)C)c2ccccc21	40
Cn1cccc1C(=O)OCc1csc(-c2ccccc2)n1	40
CCOc1ccc(OCCSc2nc3ccccc3o2)cc1	0
Cc1ccc(-n2nc3c4c(cccc4c2=O)-c2ccccc2-3)cc1	40
Fc1cccc(Cl)c1CSc1nnc(COc2cccc3cccnc23)o1	0
Cc1ccc(NC(=O)N2CCCC2C(=O)NCCC2=CCCCC2)cc1 (stereo not drawn)	0
CCOC(=O)C1CCN(C(=O)C2CCN(S(=O)(=O)c3cccc4cccnc34)CC2)CC1	0
COC(=O)c1ccc(/C=N/N2CCN(Cc3ccccc3)CC2)cc1	80
Cc1cc2nc3c(=O)[nH]c(=O)nc-3n(C[C@H](O)[C@H](O)[C@H](O)CO)c2cc1C	0[10 µg/mL]
CCOC(=O)C1CCCN(C(=O)c2cccs2)C1 (stereo not drawn)	0
COc1ccc(C(=O)Nc2ccc3oc(-c4cccc(F)c4)nc3c2)cc1OC	0
COc1cc(C)c(C(C)C)cc1S(=O)(=O)n1cnc(C)c1	0
CCOC(=O)C1=C(C)N(C)C(=O)NC1c1cccc(O)c1 (stereo not drawn)	40
CCNC(=O)c1oc2c(c1C)C(=O)CC(C)(C)C2	40
CCOC(=O)c1ccccc1NC(=O)c1nc2nccc(C)n2n1	?
O=C(CSc1nnnn1-c1ccccc1)Nc1ncc2c(n1)CC(c1ccccc1)CC2=O (stereo not drawn)	40
COc1ccc(-c2noc(C3CCCN(S(=O)(=O)c4ccc(C)c(Cl)c4)C3)n2)cc1OC (stereo not drawn)	0
CCN1CCN(CC(=O)NC2CCCC2)C(=O)C1=O	0
CCOc1ccccc1OCCCC(=O)N1CCN(S(=O)(=O)c2cccc(F)c2)CC1	0
N#Cc1c(N2CCN(C(=O)c3ccccc3)CC2)nc(-c2ccccc2)c2c1CCCC2	320
C=CCn1c(SCC(=O)Nc2cc(C)on2)nc2sc(C)c(C)c2c1=O	0
CCN(CC)C(=O)c1ccc(NC(=O)Cn2nc(C)c3ccccc3c2=O)cc1	0
COc1ccc(NC(=O)CSc2nccn2-c2cccc(OC)c2)cc1	0
Cc1nccn1-c1ncnc2sc3c(c12)CCCC3	40
COc1ccc2c(c1)[nH]c1c(=O)n(Cc3ccccn3)cnc12	0
COc1cc2c(cc1OC)CN(CC(=O)Nc1ccccc1C#N)CC2	0
COc1cccc(NC(=O)N(Cc2ccco2)C(C)c2cccs2)c1 (stereo not drawn)	0
c1cnc(N2CCN(c3nc4ccccc4n4cnnc34)CC2)nc1	0
O=C(Cn1nc(Cc2cccnc2)c2ccccc2c1=O)NCCCN1CCCC1=O	40
O=C(O)c1ccc(Cn2cc(Cl)cn2)cc1	0
C#CCn1c(=NC(=O)CN2C(=O)CCC2=O)sc2cccc(C)c21	40
COC(=O)c1ccccc1NC(=O)CSc1nc(N)cc(N)n1	0
O=C(COC(=O)C12CC3CC(CC(C3)C1)C2)NCCc1ccccc1	?
COc1cc(S(=O)(=O)NC(C)C)ccc1Cl	40
Cn1c(SCC(=O)Nc2cccc(F)c2)nnc1-c1cccnc1	0
CCn1c(SCC(=O)Nc2nnc(C)s2)nc2c(c1=O)SC(C)C2 (stereo not drawn)	0

In the list so far, 11 contain fluorine.
SMILES	quorum sensing
CCNC(=S)NNC(=O)c1ccccc1OC(F)F	?
CCC(=O)OC1(C(=O)CCl)[C@@H](C)C[C@H]2[C@@H]3CCC4=CC(=O)C=C[C@]4(C)[C@@]3(F)[C@@H](O)C[C@@]21C (stereo partly drawn)	40[10 µg/mL]
CSCC[C@H](NC(=O)NCc1ccccc1F)C(=O)O	0
O=C(c1c(F)cccc1F)N(Cc1ccccn1)C1CCCC1	0
O=C(c1cccs1)N1CCN(c2ccc(F)cc2)CC1	0
COc1ccc(-c2cc(C(F)F)n3ncc(C(=O)NCC4CCCO4)c3n2)cc1 (stereo not drawn)	40
O=C(CSc1nc(-c2ccco2)cc(C(F)(F)F)n1)NC1CCCC1	0
Fc1cccc(Cl)c1CSc1nnc(COc2cccc3cccnc23)o1	0
COc1ccc(C(=O)Nc2ccc3oc(-c4cccc(F)c4)nc3c2)cc1OC	0
CCOc1ccccc1OCCCC(=O)N1CCN(S(=O)(=O)c2cccc(F)c2)CC1	0
Cn1c(SCC(=O)Nc2cccc(F)c2)nnc1-c1cccnc1	0

Compound activity (PubChem)
